Assay outcomes (PubChem BioAssay)
CtBP-E1A blk: inhibitors of CtBP/E1A interaction. activity change, % (test concentration not listed). AlphaScreen GST-E1A/His-CtBP binding, 1536-well; stronger effect = lower value; control for the full effect not named in the record. 340,000 compounds, 0.49% hits; in the data active means activity change below about -65%; inconclusive means about -30% to -65%; inactive means above about -30%; note: % is set by controls: 0 for no effect and ±100 for the full control effect
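In 5 uL wells, 23 nL compound meets equimolar GST-E1A and His-CtBP (5X stock 125 nM each) for 2 h, 37 °C. Beads (5X, 50 ug/mL) then 1 h, 37 °C, dark.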
Menin-MLL FL inh: menin-MLL binding inhibition, fluorescein peptide. Fluorescence polarization, fluorescein-MLL peptide displacement from menin. FP activity change, % at 61.4 µM. 290,000 tested, under 10 active. AID 1766; inconclusive = falling polarisation curve, or a change in total fluorescence; inactive = total fluorescence flat and polarisation flat or rising; no compound was filed as active; the % refers to the polarisation; negative = inhibition;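 note: % of control where 0% means no effect; inhibitors lower the polarisation; unlabelled MLL peptide was the positive control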
gsp ag: agonists of gsp mutant (McCune-Albright syndrome) | gsp mutant cells, cAMP HTRF, 30 min; control for the full effect not named in the record | Potency, µM (top dose mostly 76.9 µM), for the others: top-dose activation (cAMP increase), usual class: activators | 340,000 compounds, 0.13% hits | AID 624287; active = well fitted activation curve with a large enough effect; inconclusive = small, poorly fitted or top-dose-only effect, or another doubt; inactive = no such curve, though single readings can be large or run the other way; cell line not stated here;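 note: phosphodiesterase inhibitor Ro 20-1724 added with compounds to block cAMP breakdown; potency is the fitted concentration of half-maximal effect; nearly all actives have a fitted effect of over 60% in size; about a fifth of the inactives were tested at one dose only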
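Cells in DMEM/10% FBS with G418 were pretreated with compounds in DMSO plus […] (300 uM stock) for 30 min at 37C. cAMP was measured by HTRF (cAMP-d2 plus anti-cAMP antibody-K) after 30 min at room temperature.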
Sfp inh: inhibitors of Bacillus subtilis Sfp phosphopantetheinyl transferase. Biochemical Sfp PPTase activity, qHTS. 310,000 compounds, 3.5% hits. Q9F4F7. Potency, µM, for the others: max response, negative = inhibition, usual class: inhibitors; active = well fitted inhibition curve with a large enough effect; inconclusive = small, poorly fitted or top-dose-only effect, or another doubt; inactive = no such curve, though single readings can be large or run the other way;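 note: the enzyme is Sfp with the accession as filed and its product quenches rhodamine fluorescence; potency is the fitted concentration of half-maximal effect; 0% = enzyme reaction without inhibitor and -100% = no enzyme wells; top concentration of the series not given in the record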
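Fluorescence-quenching assay with 15 nM Sfp, 5 uM rhodamine-CoA and 12.5 uM BHQ-2-labelled ybbR peptide in pH 7.6 Hepes/MgCl2 buffer. Enzyme was pre-incubated with compound for 15 min at room temperature. Rate was taken from the 30-min fluorescence change (525/598 nm).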
ClpP mod: qHTS Assay for Activators of ClpP | ATP-dependent Clp protease proteolytic subunit (Bacillus subtilis (strain 168)), P80244 | Potency, µM (titrated, usually from 57.5 µM), for inactives: at the top dose activity change, negative = active | 340,000 compounds, 1.9% hits | purified B. subtilis ClpP, FRET peptide cleavage, 20 min | AID 651965, 2013; active = well fitted falling curve with a large enough effect; inconclusive = small, poorly fitted or top-dose-only effect; inactive = no such curve, though single readings can be large or run the other way; note: potency is the fitted concentration of half-maximal effect; the source files actives as falling curves though it sought activators and does not explain the sign; nearly all actives have a fitted effect of over 65% in size; many hits overshoot -100%
Target sequence (P80244 whole entry, looked up): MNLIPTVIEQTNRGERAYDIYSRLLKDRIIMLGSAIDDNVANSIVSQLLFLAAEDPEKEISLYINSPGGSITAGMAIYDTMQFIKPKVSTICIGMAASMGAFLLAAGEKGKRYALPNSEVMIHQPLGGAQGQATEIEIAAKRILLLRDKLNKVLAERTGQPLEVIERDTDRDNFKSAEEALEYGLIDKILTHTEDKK
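Purified B. subtilis ClpP, 10 microg/mL final in Tris/HCl pH8 with KCl, BSA, glycerol and Tween-20, cleaved an Abz/nitrotyrosine-quenched decapeptide. Fluorescence (ex 320, em 430) was read at 0 and 20 min at room temperature. Delta was normalized to 5.8 microM ADEP and DMSO/no-enzyme controls.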
gsp antag: gsp mutant antagonism. gsp-mutant cells, cAMP HTRF, 30 min; control for the full effect not named in the record. Potency, µM (titrated, usually from 76.9 µM), for the others: top-dose activity change, negative = inhibition, most hits filed as inhibitors. 340,000 compounds, 0.4% hits; active = falling curve of any shape with a large fitted effect; inconclusive = falling curve, mostly with a smaller effect; inactive = flat or rising curve; cell line not stated here;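 note: intracellular cAMP measured with PDE inhibitor Ro 20-1724 present during compound exposure; potency is the fitted concentration of half-maximal effect; % is set by controls: 0 for no effect and ±100 for the full control effect; nearly all actives have a fitted effect of over 65% in size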
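Measurement of cellular cAMP by homogeneous time-resolved fluorescence following a 30 min compound exposure at 37C. The PDE inhibitor […] was present throughout; the assay buffer was DPBS with 0.05% BSA and 0.005% Tween 20.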
TRPV1 potentiator: potentiators of human vanilloid receptor 1 (TRPV1); Q8NER1; TRPV1-expressing cells, Fluo-8 calcium influx, capsaicin EC20 potentiation; host cell line not named in the record; control for the full effect not named in the record; potentiation, % at 8.33 µM; 320,000 compounds, 0.02% hits; AID 540277; active means potentiation above 80%; inconclusive means 30% to 80%; inactive means below 30%; note: 0% is about no effect
Target sequence (Q8NER1 whole entry, looked up): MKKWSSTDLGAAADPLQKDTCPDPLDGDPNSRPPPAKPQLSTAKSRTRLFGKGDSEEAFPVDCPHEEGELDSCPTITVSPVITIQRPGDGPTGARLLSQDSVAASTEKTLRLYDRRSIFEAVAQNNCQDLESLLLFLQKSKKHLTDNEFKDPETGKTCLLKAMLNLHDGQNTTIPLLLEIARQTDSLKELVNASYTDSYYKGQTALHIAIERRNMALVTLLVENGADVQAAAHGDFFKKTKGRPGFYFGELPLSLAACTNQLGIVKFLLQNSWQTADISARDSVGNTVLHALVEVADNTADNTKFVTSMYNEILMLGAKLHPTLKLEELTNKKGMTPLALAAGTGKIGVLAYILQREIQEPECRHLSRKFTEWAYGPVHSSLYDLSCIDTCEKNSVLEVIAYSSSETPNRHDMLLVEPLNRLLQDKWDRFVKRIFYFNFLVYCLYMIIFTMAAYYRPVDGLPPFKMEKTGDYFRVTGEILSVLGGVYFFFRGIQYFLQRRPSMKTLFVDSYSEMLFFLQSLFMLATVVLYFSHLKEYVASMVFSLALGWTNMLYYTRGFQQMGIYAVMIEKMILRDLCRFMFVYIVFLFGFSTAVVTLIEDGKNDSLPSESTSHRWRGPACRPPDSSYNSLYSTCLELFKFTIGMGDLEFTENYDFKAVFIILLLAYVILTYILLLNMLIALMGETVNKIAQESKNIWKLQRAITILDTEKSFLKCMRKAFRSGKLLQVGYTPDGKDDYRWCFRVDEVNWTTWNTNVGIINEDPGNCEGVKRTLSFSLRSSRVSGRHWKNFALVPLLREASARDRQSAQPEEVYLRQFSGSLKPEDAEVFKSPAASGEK
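TRPV1-expressing cells were cultured overnight at 35.5C and loaded with Fluo-8 calcium dye for 40 to 90 min at room temperature. After a 10 s baseline, compound was added and calcium influx was read kinetically for 3 min (ex 480/em 520 nm).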
* = called active by the depositor; ? = inconclusive; . = no result given; & = joins results of further samples; [ ] = dose if it differs, or a comment. Rows were taken by chance; overall some 5.3% were active at least once.

SMILES	CtBP-E1A blk	Menin-MLL FL inh	gsp ag	Sfp inh	ClpP mod	gsp antag	TRPV1 potentiator
CC(=O)c1ccc(NC(=O)C(C)OC(=O)c2cccc(-n3cnnn3)c2)cc1 (configuration not stated)	-1	.	4%	.	-0.6%	-2%	4
Cc1ccc(Cn2c(C(=O)NCCCN3CCOCC3)cc3sccc32)cc1	13	3.8	?	-3%	1.3%	-5%	-12
Cc1cccc(-n2c(O)c(C=Nc3cccc(O)c3)c3ccccc3c2=O)n1	-4	0.3	-16%	11%	0.7%	-10%	7
O=C(NCCCN1CCOCC1)c1ccc2c(=O)n(Cc3ccc(Cl)cc3)c(=S)[nH]c2c1	3	-1.4	?	-11%	-1.4%	-15%	9
Cc1cc(C)cc(OCC(=O)Nc2nc(-c3cccnc3)cs2)c1	-2	-0.4	17%	45µM*	0.4%	-13%	3
O=C(NCc1cccs1)c1ccc(Br)o1	6	8.0	4%	-6%	-1.6%	3%	16
COc1ccccc1C1c2[nH]c3ccccc3c2C[C@H]2C(=O)N(C3CCN(Cc4ccccc4)CC3)CC(=O)N12 (some centres not stated)	0	12	2%	14%	-0.8%	-6%	24
CCOC(=O)C(C)Oc1cccc2c(=O)n(CC(=O)NCc3ccc(F)cc3)ccc12 (configuration not stated)	.	2.4	15%	5%	-19%	11%	-12
COc1ccc(NC(=O)CN(C)C(=O)CC2CCCCC2)cc1	-10	.	-39%	.	-5.4%	4%	?
c1ccc(C[C@H]2CN=C(Nc3ccccc3)N2CCC2CCCC2)cc1	-2	.	.	.	-0.7%	12%	10
Cc1ccc(-c2nnn(CCOc3cccc(Br)c3)n2)cc1	-9	3.9	1%	15%	0.8%	13%	-4
Cc1cc(C)n(S(=O)(=O)c2cccc(Cl)c2Cl)n1	8	3.2	-13%	-5%	0.2%	-2%	9
COc1cccc(/C=N/NC(=O)CCn2nnc3ccccc32)c1	0	?	-3%	12%	-8.4%	-7%	2
CCO[C@@H]1OC(C(=O)Nc2ccccc2)=C[C@H](c2ccc(Br)cc2)[C@H]1CCCO	1	1.3	-1%	-3%	-0.5%	-18%	17
COc1ccc([C@H]2N[C@]3(CCCN(Cc4ccc(F)cc4)C3=O)[C@H]3C(=O)N(Cc4ccccc4)C(=O)[C@@H]23)cc1	-6	.	-59%[inhibitor]	.	-0.8%	.	.
Cc1ccc(C(=O)NC(C)c2ccc(-n3ccnc3)cc2)cc1S(=O)(=O)N1CCOCC1 (configuration not stated)	1	.	-21%	.	1.5%	0%	-2
N=C1/C(=C/c2ccc(-c3cccc(C(=O)O)c3)o2)C(=O)N=C2SC=C(c3ccccc3)N12	-21	23	8%	-53%	3.0%	?	?
NC(=O)C1CCCN(C(=O)c2ccc3nc(Cc4cccc(Cl)c4)oc3c2)C1 (configuration not stated)	0	-1.1	-26%	12%	0.2%	-5%	-2
Cc1ccc(S(=O)(=O)NCCC2(C(C)C)CCOC(C)(C)C2)cc1 (configuration not stated)	10	8.5	-1%	13%	-2.7%	-6%	-8
COc1ccc(NC(=O)C(=O)NCCC2=CCCCC2)c(OC)c1	-3	-0.6	?	14%	11%	16%	-4
Cc1ccc(-n2ncc(Cl)c2C(=O)NCc2ccccc2)cc1	20	3.4	?	-7%	-1.9%	7%	-24
CC(C)(C)c1cc(C(=O)NCc2cc(F)cc3c2OCOC3)n(Cc2ccccc2)n1	6	-0.9	5%[15.4 µM]	8%	.	?	10
COC(=O)C(OC(=O)c1ccccc1)C(C)Br (configuration not stated)	7	.	.	.	0.0%	4%	-11
CCOc1ccc(N2C(=O)Cc3ccccc3C2=O)cc1	-1	11	23%[15.4 µM]	-11%	.	-3%	-2
Cc1cc(NC(=O)c2coc(=O)c(Br)c2)ccc1C(C)C	2	-3.6	-12%[15.4 µM]	12%	.	-1%	-2
CC(O)CNC12CC3CC(CC(C3)C1)C2 (configuration not stated)	3	3.2	?	2%	1.1%	-11%	6
CCOc1ccc(C(=O)NCC(=O)N2CCCCCCC2)cc1OCC	-8	.	-46%[inhibitor]	.	-17%	3%	6
CC(=O)c1nnn(-c2ccccc2C#N)c1C	-2	4.8	13%[15.4 µM]	8%	-0.1%	4%	-2
COc1ccc(/C(C)=N/NC2=NCCN2)cc1Cl	-6	-1.1	6%[15.4 µM]	20%	.	3%	6
Cc1cc(C)n2nnnc2c1C#N	13	0.1	-24%	10%	-8.0%	8%	-11
O=C(c1cccc(F)c1)N1CCN(c2cc(N3CCCCC3)c(F)cc2[N+](=O)[O-])CC1	-4	2.7	-23%	10%	0.5%	-15%	-10
Cc1nnc(NC(=O)C23CC4CC(C)(CC(C)(C4)C2)C3)s1	7	.	6%	.	.	15%	.
COc1cc(NC(=O)c2ccc(F)cc2)c(OC)cc1NC(=O)CN1CCOCC1	4	0.8	2%[15.4 µM]	23%	.	2%	-4
COc1ccc(-c2nn(-c3ccccc3)cc2/C=N/O)cc1OC	.	4.3	6%	13%	-4.6%	8%	7
COC(=O)c1sccc1NC(=O)CN(C)NS(=O)(=O)c1ccc(F)cc1	4	3.3	-1%	-1%	0.0%	50µM*	-9
CCCS(=O)(=O)N1CCN=C1SCc1cccnc1	2	6.7	2%[15.4 µM]	13%	.	12%	8
Cc1nn(CCC(=O)NNC(=S)Nc2cccc(Cl)c2)c(C)c1[N+](=O)[O-]	-8	2.4	20%	-7%	0.7%	-14%	24
O=C(O)c1cc([N+](=O)[O-])ccc1NCc1cccnc1	-8	1.3	4%[15.4 µM]	13%	-1.9%	7%	5
CCC(C)[C@H](N)C(=O)N[C@H]1CCC2C3CC=C4C[C@@H](O)CC[C@]4(C)C3CC[C@@]21C (some centres not stated)	9	.	-54%[inhibitor]	.	-1.0%	.	.
O=C(O)c1ccc(Nc2nc3ccc(Cl)cc3[nH]2)cc1	-7	-0.3	.	-25%	?	5%	15
Cc1ccc(NC(=S)N2CCN(c3ccccn3)CC2)c(C)c1	-12	-5.2	43%	3%	-16%	5%	?
O=[N+]([O-])c1ccc(Sc2nccn2Cc2ccccc2)cc1	-6	-3.5	-21%	14%	0.4%	3%	-8
Cc1cccc(NC(=O)N2CCCCCC2)c1	1	1.7	3%	13%	0.0%	1%	-1
COc1ccc(OC)c(CC(NC(C)=O)C(=O)NC2CCN(S(=O)(=O)c3ccc(NC(C)=O)cc3)CC2)c1 (configuration not stated)	4	.	-85%[inhibitor]	20%	-0.6%	5%	-6
Cc1ccc(-c2nc3cc(N)ccc3o2)cc1Br	-5	-4.2	?	-2%	.	7%	-5
Cc1ccc([C@H]2C(C(=O)O)=CC[C@@H](c3cccc(Cl)c3)N2S(=O)(=O)c2ccc(C)cc2)cc1	8	.	.	.	-0.4%	0%	.
Cc1cc(C=O)c(C)n1-c1ccc(Cl)c(C(=O)O)c1	4	1.7	16%	-9%	.	3%	0
CC(C)CC(=O)NC(=S)Nc1ccc(NC(=O)c2ccco2)cc1	1	-0.6	-1%	4%	1.1%	-23%	-12
Cc1ccc(NCC(=O)N/N=C\c2ccc[nH]2)cc1	-3	3.3	1%	10%	.	-1%	-1
CCOC(=O)C1=C(C)NC(C)=C(C(=O)OCC)C1C	27	4.7&3.3	1%	13%&5%	-25%	3%	9&6
CCc1nnc(SCc2cn3c(C)cc(C)nc3n2)n1N	8	1.3	16%	-19%	11µM*	1%	-13
COc1ccc(N(C(C)C(=O)NN=C2CCCCCCC2)S(C)(=O)=O)cc1 (configuration not stated)	1	3.8	16%	6%	-0.8%	5%	-17
COC(=O)c1cc(-c2c(-c3cc(OC)c(OC)c(OC)c3)noc2C)cc([N+](=O)[O-])c1	?	16	?	3%	-2.0%&-0.5%	-17%	0
Cc1nnsc1C(=O)Nc1ccc(S(=O)(=O)N2CCCCC2C)cc1 (configuration not stated)	0	-2.7	-9%	-5%	-1.4%	-3%	-9
O=C(CCc1ccccc1)NC(=S)Nc1cc(C(F)(F)F)ccc1N1CCOCC1	8	5.3	2%	1%	1.2%	8%	2
Cc1nnc(NC(=O)c2ccc3ccccc3c2)s1	2	.	3%	11%	-25%	0%	24
Cc1nc(N2CCN(S(=O)(=O)c3ccccc3C#N)CC2)c2c(-c3cccs3)csc2n1	.	9.3	25%	12%	-1.4%	-31%	12
CC(=O)Nc1ccccc1-c1nc2ccc(C(=O)N3CCN(c4ccccc4)CC3)cc2[nH]c1=O	6	-0.7	?	-6%	-16%	0%	8
COc1ccc(NC(=O)CSc2nnc(NC(=O)c3ccc(S(=O)(=O)N4CCOCC4)cc3)s2)cc1	0	3.5	-25%	-15%	-2.6%	-12%	1
Cc1nc2ccccc2n1C(C)c1ccccc1 (configuration not stated)	3	0.0	-9%	-3%	1.2%	5%	1
The list continues.
SMILES	CtBP-E1A blk	Menin-MLL FL inh	gsp ag	Sfp inh	ClpP mod	gsp antag	TRPV1 potentiator
O=C(COC(=O)c1ccc2c(c1)C(=O)N(Cc1ccncc1)C2=O)Nc1ccccc1[N+](=O)[O-]	-10	2.3	-8%[15.4 µM]	-17%	-3.7%	-27%	?
CC(C)(C)NC(=O)C(c1ccncc1)N(C(=O)CNC(=O)c1ccco1)c1ccc2c(c1)OCO2 (configuration not stated)	2	-0.1	27%	16%	-1.7%	-5%	19
O=C(Nc1cccc(C(=O)N2CCN(c3ccccc3)CC2)c1)c1ccco1	-6	.	4%[15.4 µM]	8%	-3.0%	2%	4
Cc1cc(C(=O)Cn2nc(C(=O)O)c3ccccc3c2=O)c(C)n1-c1ccc(OC(F)F)cc1	.	1.7	-88%[inhibitor]	1%	0.0%	-13%	8
CCCc1cc(=O)n2[nH]c(NCc3ccc(Cl)cc3Cl)nc2n1	3	-0.3	-63%[inhibitor]	8%	-1.3%	-3%	16

Single entries from the list:
`CCCc1cc(=O)n2[nH]c(NCc3ccc(Cl)cc3Cl)nc2n1` @ ClpP mod = -1.3%
`O=C(Nc1cccc(C(=O)N2CCN(c3ccccc3)CC2)c1)c1ccco1` @ Sfp inh = 8%
